Mtb growth: Mycobacterium tuberculosis H37Rv growth inhibition, putative kinase inhibitor library, confirmatory dose response (AID 2842); 24,000 tested, 5.2% active; inhibition, % at 10 µg/mL; hits with a dose series show IC90 in µg/mL; M. tuberculosis H37Rv growth inhibition; higher % means a stronger effect; some inactives read as strong as hits;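 active = confirmed in a dose series; about a fifth of its hits are not listed in these tables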;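 also: bacteria incubated one week before Alamar blue readout; 0% = bacteria only wells and 100% = bacteria with high antibiotic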
Active calls of the source: *. A portion of the library. The share of hits here may be higher or lower than overall.

Preview:
SMILES	Mtb growth
CCCCn1c(SC(C)C)nc2c1c(=O)[nH]c(=O)n2C	14.9%
CC1CCc2nc(NC(=O)Nc3ccc(Cl)cc3)sc2C1 (stereo not drawn)	-1.4%
Cn1c(=O)c2c(SCC(=O)NCc3ccc4c(c3)OCO4)nc(-c3ccco3)nc2n(C)c1=O	-6.7%

The listing (from the top)
SMILES	Mtb growth
CCCCn1c(SC(C)C)nc2c1c(=O)[nH]c(=O)n2C	14.9%
CC1CCc2nc(NC(=O)Nc3ccc(Cl)cc3)sc2C1 (stereo not drawn)	-1.4%
Cn1c(=O)c2c(SCC(=O)NCc3ccc4c(c3)OCO4)nc(-c3ccco3)nc2n(C)c1=O	-6.7%
Cc1ccc2cc(CCNC(=O)c3ccccc3C)c(=O)[nH]c2c1	6.2%
O=C(CSc1nc2cc([N+](=O)[O-])ccc2s1)c1ccc(Br)cc1	-5.4%
CN1C(=O)c2cccc(NC(=O)c3ccc(C#N)cc3)c2C1=O	-6.4%
C=CCN1C(=O)C(C)(C)COc2ccc(NS(=O)(=O)c3ccc4c(c3)CCCC4)cc21	20.9%
Cc1cc(Cl)ccc1Nc1nc(NCCCO)nc2c1cnn2C	13.9%
CCCS(=O)(=O)N1CCN(c2ccc(NCC3CCCO3)nn2)CC1 (stereo not drawn)	-1.2%
Cc1ccc(C)c(NC(=O)CSc2cn(Cc3ccccc3C)c3ccccc23)c1	2.9%
COc1ccc(C2c3cccn3CCN2C(=O)Nc2ccc(C)c(C)c2)cc1 (stereo not drawn)	-1.6%
CCSc1ccccc1C(=O)Nc1sc(C)c(C)c1C(N)=O	3.3%
O=C(Nc1nnc(-c2cccs2)o1)c1ccc([N+](=O)[O-])s1	1.69µg/mL*
CC1CCc2c(sc(Nc3nc4ccc(F)cc4s3)c2-c2nc3ccccc3s2)C1 (stereo not drawn)	4.4%
CCc1nnc(NC(=O)c2ccc(COc3ccccc3)o2)s1	-1.7%
Cc1cc(NC(=O)c2cc(Br)ccc2Cl)nc2c1c(=O)oc1ccccc12	-0.6%
COC(=O)c1ccc(/C=C2\SC(=S)N(C(CCC(=O)O)C(=O)O)C2=O)cc1 (stereo not drawn)	-14.9%
CC(=O)Nc1cccc(NC(=O)Cn2cnc3c(cnn3-c3ccc(Cl)cc3)c2=O)c1	5.5%
Nc1[nH]n(-c2ccccc2)c(=O)c1N=Nc1ccc(-c2ccccc2)cc1	10.1%
Cc1ccc2c(c1)NC(=O)c1cc(NS(=O)(=O)Cc3ccccc3)ccc1O2	1.3%
O=C(Nc1nnc(-c2ccncc2)o1)c1cccc(C(F)(F)F)c1	28.1µg/mL*
CCn1c(SCC(=O)Nc2ccc(Cl)cc2)nc2c(c1=O)SC(C)C2 (stereo not drawn)	5.8%
O=C(Nc1nnc(-c2cc(Cl)ccc2Cl)o1)c1ccc(S(=O)(=O)N2CCCCC2)cc1	11.7µg/mL*
Cc1ccc2nc(NC(=O)c3cccc4ccccc34)sc2c1	-4.5%
COc1ccc(C(=O)Nc2nnc(-c3ccco3)o2)c(OC)c1	4.9%

The closing 5 compounds of the part before come first, to join the parts.
SMILES	Mtb growth
O=C(Nc1nnc(-c2ccncc2)o1)c1cccc(C(F)(F)F)c1	28.1µg/mL*
CCn1c(SCC(=O)Nc2ccc(Cl)cc2)nc2c(c1=O)SC(C)C2 (stereo not drawn)	5.8%
O=C(Nc1nnc(-c2cc(Cl)ccc2Cl)o1)c1ccc(S(=O)(=O)N2CCCCC2)cc1	11.7µg/mL*
Cc1ccc2nc(NC(=O)c3cccc4ccccc34)sc2c1	-4.5%
COc1ccc(C(=O)Nc2nnc(-c3ccco3)o2)c(OC)c1	4.9%
O=C(CN1C(=O)CCC1=O)Nc1nc(-c2ccc3ccccc3c2)cs1	10.9%
CC1CCCN(C(c2ccccc2)c2sc3ncnn3c2O)C1 (stereo not drawn)	-2.6%
CCCc1cc(=O)[nH]c2nnc(SCC(C)=O)n12	-7.2%
Cc1ccc2cc(CCNC(=O)COc3ccc(Cl)cc3Cl)c(=O)[nH]c2c1	2.4%
CSc1nc2ccc3nc(NC(=O)c4ccc(OC(C)C)cc4)sc3c2s1	-3.3%
Cc1csc(NC(=O)CSc2nc(-c3ccc([N+](=O)[O-])cc3)nc3c2c(=O)n(C)c(=O)n3C)n1	-4.5%
COc1cccc(N2C(=O)NC3CC2(C)Oc2ccccc23)c1 (stereo not drawn)	-7.5%
CC1=C(C(=O)Nc2ccccc2)C(c2ccco2)C(C#N)=C(SCC(=O)Nc2ccc(C)cc2C)N1 (stereo not drawn)	2.5%
COc1ccc(OC)c2[nH]c(=O)c(CCNC(=O)c3cccc4ccccc34)cc12	69.8%
CC(=O)Nc1ccc(NC(=O)c2sc3nc4c(c(-c5ccc(C)cc5)c3c2N)CCC4)cc1	-0.8%
CCOC(=O)N1CCN(C(=O)CN2C(=O)/C(=C\c3cccs3)SC2=S)CC1	-12.0%
O=C(COc1ccc(Cl)cc1Cl)Nc1c2c(nn1-c1ccc(F)cc1)CS(=O)C2 (stereo not drawn)	12.8%
COc1cc(OC)cc(-c2nnc(Nc3nc4ccc(F)cc4s3)o2)c1	71.3%
CC(=O)Cc1nsc(NC(=O)c2csc3c2CCC(C)C3)n1 (stereo not drawn)	-8.3%
Cn1c(=O)c2c(SCC(=O)N3CCCCCC3)nc(-c3cccs3)nc2n(C)c1=O	1.9%
CCCCSc1nc(N)c(NC(=O)c2ccc(OC)c(OC)c2)c(=O)[nH]1	-6.0%
CCOC(=O)CCc1c(C)c(C#N)c2nc3ccccc3n2c1-n1cnc2ccccc21	-6.5%
CCN(C1CCCCC1)S(=O)(=O)c1ccc(C(=O)Nc2nnc(-c3ccc(F)cc3)o2)cc1	5.64µg/mL*
O=C(Nc1nc(-c2ccc(Br)cc2)cs1)c1ccc(S(=O)(=O)N2CCCCCC2)cc1	17.9%
CCOc1ccccc1Nc1ncnc(N)c1[N+](=O)[O-]	2.8%
COc1ccc(-c2c(C#N)c(N)nc3sc(C(=O)c4ccc(Cl)cc4)c(N)c23)cc1OC	-8.8%
CCC(C)Nc1nc2c(c(=O)n(C)c(=O)n2C)n1Cc1ccc(Cl)cc1 (stereo not drawn)	78.5%
COc1ccc(-c2nnc3ccc(SC(C)C)nn23)cc1OC	34.1%
COc1ccc(S(=O)(=O)Nc2cc3c4c(c2)CCN4C(=O)CC3)cc1	11.8%
CCOC(=O)c1nn(-c2ccc(C)cc2)c(=O)c2c(NC(=O)C3CC3)scc12	6.9%
Next compounds.
SMILES	Mtb growth
CCC(=O)N(C)c1nnc(C23CC4CC(CC(C4)C2)C3)s1	35.2%
CC1CC(C)CN(c2nc3c(c(=O)[nH]c(=O)n3C)n2CCSc2nc3ccccc3s2)C1 (stereo not drawn)	24.9%
CCOc1ccc(-c2ccc(=O)n(CCNS(=O)(=O)c3ccc(Cl)cc3)n2)cc1	6.3%
O=C(Cc1cccc2ccccc12)Nc1nnc(-c2cccc([N+](=O)[O-])c2)s1	69.3%
Cc1cccc(-c2nnc(NC(=O)CCc3ccccc3)s2)c1	0.2%
O=C(Nc1nnc(-c2ccc(Cl)cc2Cl)s1)c1ccc(C(=O)c2ccccc2)cc1	-3.9%
COCCn1c(SCC(=O)Nc2nccs2)nc2c([nH]c3ccccc32)c1=O	6.9%
O=C(NNc1nc2ccc(F)cc2s1)c1ccc(S(=O)(=O)N2CCc3ccccc3C2)cc1	72.5%
Cc1cc(Br)ccc1NS(=O)(=O)c1cc2c3c(c1)CCC(=O)N3CCC2	-6.3%
CCOCCn1c(SCc2c(F)cccc2Cl)nc2c1c(=O)[nH]c(=O)n2C	-3.8%
Cc1ccccc1-n1nc2c(c1NC(=O)c1cccc(F)c1)CS(=O)C2 (stereo not drawn)	2.1%
COc1cc([N+](=O)[O-])ccc1NC(=O)c1cncc(Br)c1	-1.1%
CS(=O)(=O)Nc1ccc(C2=NN(C(=O)c3cccs3)C(c3ccco3)C2)cc1 (stereo not drawn)	-0.3%
O=C(Nc1ncc(Cc2cccc3ccccc23)s1)C1CC1	3.6%
Cc1ccccc1C(=O)Nc1cc2c3c(c1)C(C)C(=O)N3CCC2 (stereo not drawn)	-17.2%
Cc1sc2ncnc(NC(C)C(=O)O)c2c1C (stereo not drawn)	-6.9%
COc1ccc(-n2ccnc(SCC(=O)Nc3ccc(Cl)cc3)c2=O)cc1	-6.1%
CCOC(=O)N1CCc2c(sc(NC(=O)c3ccc(-c4nc5ccccc5s4)s3)c2C#N)C1	11.2%
Cc1ccc(C)c(Cn2c(C3CC(=O)N(Cc4ccccc4)C3)nc3ccccc32)c1 (stereo not drawn)	70.0%
CNC(=O)c1ccsc1NC(=O)c1ccc([N+](=O)[O-])s1	79.5%
Cc1sc2ncnc(Sc3nnnn3-c3ccccc3)c2c1C	39.6%
CCOC(=O)c1nn(-c2ccc(Cl)cc2)c(=O)c2c(NC(=O)Cc3cccs3)scc12	2.7%
O=C(Nc1nnc(C23CC4CC(CC(C4)C2)C3)s1)c1ccc(S(=O)(=O)N2CCCCC2)cc1	-2.5%
CCOC(=O)c1nn(-c2ccc(OC)cc2)c(=O)c2c(NC(=O)Cc3ccc(OC)cc3)scc12	-6.8%
Cc1ccc(-n2nnc3c(=O)n(Cc4cccc(C(F)(F)F)c4)cnc32)cc1C	7.1%

Quoted from the entries so far for reference:
SMILES	Mtb growth
O=C(Nc1nnc(C23CC4CC(CC(C4)C2)C3)s1)c1ccc(S(=O)(=O)N2CCCCC2)cc1	-2.5%
CCOC(=O)c1nn(-c2ccc(OC)cc2)c(=O)c2c(NC(=O)Cc3ccc(OC)cc3)scc12	-6.8%
Cc1ccc(-n2nnc3c(=O)n(Cc4cccc(C(F)(F)F)c4)cnc32)cc1C	7.1%

(list continues)
SMILES	Mtb growth
Cc1ccc2cc(CCNC(=S)Nc3ccc(OC(F)F)cc3)c(=O)[nH]c2c1C	45.2%
COc1ccc(NC(=O)CSc2nnc(-c3cccs3)n2N)cc1	-4.2%
O=C(Nc1nnc(-c2ccccc2)s1)c1cc(Cl)ccc1Cl	12.4%
COc1ccc(NC(=O)Cn2c(=O)n(Cc3ccco3)c(=O)c3oc4ccccc4c32)cc1	12.8%
CCOc1ccccc1C(=O)Nc1c2c(nn1-c1cccc(Cl)c1)CS(=O)C2 (stereo not drawn)	14.1%
COc1ccc(Cn2cc3c(-c4ccc(F)cc4)nnc-3c3cc(OC)ccc32)cc1	2.5%
COc1ccc(-n2nc3c(c2NC(=O)c2ccccc2C)CS(=O)C3)cc1 (stereo not drawn)	5.3%
Clc1cccc(Nc2ccc(NCc3ccccc3)nn2)c1	6.71µg/mL*
O=C(CCCN1C(=O)c2ccccc2C1=O)NC1CCS(=O)(=O)C1 (stereo not drawn)	-8.3%
O=C(Nc1ccc(F)c(F)c1)c1oc2ccccc2c1NC(=O)C1CCCC1	-6.3%
Cn1c(=O)c2c(SCc3cccc([N+](=O)[O-])c3)nc(-c3ccc(F)cc3)nc2n(C)c1=O	4.3%
Cc1nc2ccc(NC(=O)c3cccc(NS(=O)(=O)c4ccc(F)cc4)c3)cc2s1	5.8%
O=C(CSC1=Nc2cccnc2Nc2ccccc21)Nc1ccc(C(F)(F)F)cc1	8.3%
COc1cccc(C(=O)N(CCCn2ccnc2)c2nc3ccc(C)cc3s2)c1OC	2.63µg/mL*
Cc1ccc(C)c(-c2nnc(NC(=O)c3cccc([N+](=O)[O-])c3)o2)c1	29.6µg/mL*
N#Cc1nc2c(C#N)c(N)n(Nc3ccccc3)c2nc1C#N	73.2%
O=C1C(Cl)=C(NCc2ccccc2Cl)C(=O)N1C1CCCCC1	-10.0%
CCOCCn1c(=S)[nH]c2c1c(=O)[nH]c(=O)n2C	-2.1%
CC(C)c1nnc(NC(=O)c2ccc(-c3ccccc3)cc2)s1	83.9%
CCN1C(=O)CCc2cc(NS(=O)(=O)c3ccc(OC)c(OC)c3)ccc21	-5.3%
Cc1ccc(C(=O)Nc2c(N)nc(SCC(=O)Nc3cccc4ccccc34)[nH]c2=O)cc1	6.7%
CCCOc1ccccc1/C=C(/C#N)c1nc2ccccc2c(=O)[nH]1	30.1%
CC(C)CC(Nc1ncnc2ccc(Br)cc12)C(=O)O (stereo not drawn)	-5.0%
COc1cccc(Nc2nc(O)c(C3=c4ccccc4=NC3=O)s2)c1	37.8%
O=C(NC(=O)C(F)(F)F)Nc1ccc(S(=O)(=O)Nc2nccs2)cc1	0.1%
Other entries
SMILES	Mtb growth
O=C(CCCN1C(=O)c2cccc3cccc(c23)C1=O)OCC(=O)c1cccc([N+](=O)[O-])c1	-1.1%
COc1ccccc1NC(=O)Cn1cc(S(=O)(=O)c2ccc(C)c(C)c2)c(=O)c2cc(F)ccc21	-5.8%
O=C(CSc1ccc2nnc(-c3ccc(F)cc3)n2n1)NC1CCCC1	1.9%
CCS(=O)(=O)c1ccc(C(=O)Nc2nc3cc(C)cc(C)c3s2)cc1	-0.5%
CCOC(=O)c1nn(-c2ccc(F)cc2)c(=O)c2c(NC(=O)/C=C/c3ccccc3)scc12	-5.1%
COc1ccccc1N1CCN(c2nc(Nc3ccc(F)cc3)c3nccnc3n2)CC1	27.6µg/mL*
CCOc1ccc(N2CC(NC(=O)c3ccc(Br)cc3)CC2=O)cc1 (stereo not drawn)	-19.8%
O=C(O)CC(C(=O)O)N1C(=O)/C(=C\c2ccc(-c3ccc(Br)cc3)o2)SC1=S (stereo not drawn)	-20.1%
COc1ccc(C(=O)Nc2c(N)nc(SCC(=O)Nc3ccc4c(c3)OCCO4)[nH]c2=O)cc1	9.4%
Cn1c(=O)c2c(nc(N3CCCCC3)n2CCSc2nc3ccccc3o2)n(C)c1=O	5.4%
Nc1ncnc(NC2CCS(=O)(=O)C2)c1[N+](=O)[O-] (stereo not drawn)	-2.4%
Cc1nnc(SCC(=O)N2CCN(c3ccccc3)CC2)n(N)c1=O	-0.7%
COc1ccc(-c2nnc3c4ccccc4n(Cc4cccc(F)c4)cc2-3)cc1OC	14.6%

Source: PubChem BioAssay (Southern Research Institute)
